# From PubChem
# Mtb MenB inh = inhibitors of Mycobacterium tuberculosis MenB enzyme. AID 540299. MenB enzyme assay, absorbance read-out; some hits fall short of the stated cut. inhibition, %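 (about 12 µg/mL by stock and volumes)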. 100,000 tested, 0.43% active. P9WNP5;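 active means mean of two replicates above 30%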;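 further: 0% = no compound and 100% = wells with inactive enzyme; the first replicate is given; strong numbers were not always called active; inactives centre near -10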
# Target sequence (P9WNP5 whole entry, looked up): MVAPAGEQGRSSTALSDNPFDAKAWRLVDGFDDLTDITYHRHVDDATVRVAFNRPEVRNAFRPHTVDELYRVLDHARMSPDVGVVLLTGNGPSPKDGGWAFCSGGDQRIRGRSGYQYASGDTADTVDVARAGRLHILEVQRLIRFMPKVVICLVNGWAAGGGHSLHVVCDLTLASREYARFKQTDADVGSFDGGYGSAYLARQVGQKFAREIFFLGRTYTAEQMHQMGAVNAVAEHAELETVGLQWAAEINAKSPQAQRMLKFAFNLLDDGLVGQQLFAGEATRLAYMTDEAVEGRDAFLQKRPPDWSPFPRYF
# Mtb MbtI inh = inhibitors of Mycobacterium tuberculosis siderophore enzyme MbtI; P9WFX0; purified MbtI enzyme, fluorescence intensity read-out; inhibition, %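 (about 17 µg/mL by stock and volumes)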; 100,000 tested, 0.89% active;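 active means above 50% in both replicates, above 80% if mildly self-fluorescent; inactive means the rest, strongly fluorescent compounds included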;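 further: 0% = mean of negative and 100% = mean of positive controls; one replicate is shown; some compounds called inactive have numbers as strong as hits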
# Target sequence (P9WFX0 whole entry, looked up): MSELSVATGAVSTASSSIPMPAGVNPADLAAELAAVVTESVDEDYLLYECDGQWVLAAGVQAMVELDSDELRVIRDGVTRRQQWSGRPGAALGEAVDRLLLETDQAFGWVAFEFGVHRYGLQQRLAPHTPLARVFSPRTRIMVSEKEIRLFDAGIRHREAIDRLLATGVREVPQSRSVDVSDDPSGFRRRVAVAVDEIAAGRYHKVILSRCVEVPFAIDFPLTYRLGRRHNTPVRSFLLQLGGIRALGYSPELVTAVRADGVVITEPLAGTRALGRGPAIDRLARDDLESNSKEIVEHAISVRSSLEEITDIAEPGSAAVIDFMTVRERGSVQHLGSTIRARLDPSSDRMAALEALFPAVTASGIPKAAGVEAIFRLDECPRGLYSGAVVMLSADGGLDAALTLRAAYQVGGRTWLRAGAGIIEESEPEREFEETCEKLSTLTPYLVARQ
# Polio RdRp inh = poliovirus RNA polymerase inhibition | poliovirus polymerase elongation, fluorescence polarization; active compounds read low | % elongation, % (compound at 16.7 µg/mL) | 150,000 tested, 0.66% active; in the data active means % elongation below about 90%; further: some results filed as inactive read as strong as hits
# Polio RdRp inh intensity = recorded beside Polio RdRp inh, whose call it bears; % elongation; measured here: total intensity read-out; formula for this scale not given here;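 total fluorescence in place of polarization; lower means less elongation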
# * marks the source's active call; other numbers are inactive results; x = not tested or not shown.
# Codes: A = Mtb MenB inh; B = Mtb MbtI inh; C = Polio RdRp inh; D = Polio RdRp inh intensity
COc1ccc(-c2cc(C(F)(F)F)n3nc(N)nc3n2)cc1
  A: -5.6	B: -342.8	C: 101.0	D: 103.0

Cc1ccc(-c2csc(=Nc3cccnc3)n2CCCN2CCCC2=O)cc1C
  A: -34.4	B: -5.0	C: 99.0	D: 104.0

CCCc1cnc(N2CCN(C(=S)NC)CC2)nc1
  A: -16.6	B: -5.9	C: 99.0	D: 108.0

COc1cccc(NCc2ccc(OC)c(Cn3ccnc3)c2)c1
  A: -19.1	B: -24.0	C: 101.0	D: 105.0

CN(C)/C=C(\C#N)C(=O)N=C1CCCN1C
  A: 3.3	B: 40.9	C: 100.0	D: 102.0

CCc1cccc2c(C#N)cn(CC(=O)NCc3ccco3)c12
  A: 0.4	B: x	C: 106.0	D: 104.0

CCOc1ccc(CCNC(=O)c2ccc3c(=O)n4c(nc3c2)CCCCC4)cc1
  A: -26.3	B: -9.4	C: 103.0	D: 94.0

CN(C)/C=N/NC(=O)Cc1csc2nc(-c3ccccc3)nn12
  A: -1.2	B: 10.8	C: 100.0	D: 104.0

O=C(NCc1ccccn1)C1CCN(C(=O)c2cnn(-c3ccccc3)c2-n2cccc2)CC1
  A: -3.3	B: -9.0	C: 103.0	D: 103.0

Cc1ccc(C(=O)Nc2ccc(CN3CCS(=O)(=O)CC3)cc2)cc1C
  A: 10.5	B: -7.4	C: 108.0	D: 114.0

CCCCn1nnc2c(=O)oc3ccccc3c21
  A: -1.9	B: -9.4	C: 101.0	D: 102.0

CC(C)N(CCC#N)C(=O)Nc1ccccc1
  A: 9.5	B: -14.1	C: 106.0	D: 102.0

CCCC(=O)N=c1sc2c(OC)ccc(OC)c2n1C
  A: -21.9	B: -9.1	C: 96.0	D: 110.0

Cc1nc2ccc(S(=O)(=O)NC(C(=O)Nc3nc4ccc(Cl)cc4s3)C(C)C)cc2s1 (stereo not given)
  A: -0.8	B: -11.1	C: 104.0	D: 110.0

Cc1ccc(C2=NNC3(CCOC(C)(C)C3)S2)cc1 (stereo not given)
  A: -72.7	B: x	C: 125.0	D: 132.0

# A different layout for part of the listing above:
> Cc1ccc(-c2csc(=Nc3cccnc3)n2CCCN2CCCC2=O)cc1C
  Mtb MenB inh: -34.4 | Mtb MbtI inh: -5.0 | Polio RdRp inh: 99.0 | Polio RdRp inh intensity: 104.0

> CCCCn1nnc2c(=O)oc3ccccc3c21
  Mtb MenB inh: -1.9 | Mtb MbtI inh: -9.4 | Polio RdRp inh: 101.0 | Polio RdRp inh intensity: 102.0

> Cc1ccc(C(=O)Nc2ccc(CN3CCS(=O)(=O)CC3)cc2)cc1C
  Mtb MenB inh: 10.5 | Mtb MbtI inh: -7.4 | Polio RdRp inh: 108.0 | Polio RdRp inh intensity: 114.0

> O=C(NCc1ccccn1)C1CCN(C(=O)c2cnn(-c3ccccc3)c2-n2cccc2)CC1
  Mtb MenB inh: -3.3 | Mtb MbtI inh: -9.0 | Polio RdRp inh: 103.0 | Polio RdRp inh intensity: 103.0

# (further entries)
# Codes: A = Mtb MenB inh; B = Mtb MbtI inh; C = Polio RdRp inh; D = Polio RdRp inh intensity
CC(=O)Nc1cc(C(=O)NCc2ccccc2)ccc1Sc1ccc(Cl)cc1
  A: -85.0	B: -5.2	C: 102.0	D: 103.0

Cc1csc(-c2cn(C(C)C)c(=O)n(Cc3ccccc3)c2=O)n1
  A: 11.2	B: -29.9	C: 102.0	D: 97.0

Cc1cc(C(=O)CSc2nnc(N)s2)c(C)n1-c1c(C)n(C)n(-c2ccccc2)c1=O
  A: -22.0	B: -1.1	C: 105.0	D: 106.0

CCN(C(=O)c1ccc(OC)cc1)c1ccccc1OC
  A: -7.3	B: -0.2	C: 103.0	D: 101.0

CC(=O)Nc1cc2c(C)cc(=O)oc2c2c1OCC2=O
  A: -14.6	B: x	C: 100.0	D: 93.0

COc1ccc(S(=O)(=O)N2CCCC(C(=O)NC3CC3)C2)cc1OC (stereo not given)
  A: 18.5	B: -2.0	C: 101.0	D: 101.0

O=C(Oc1c(-c2ccccc2)c(=O)n2c3c(cccc13)CC2)c1ccco1
  A: 11.7	B: -102.4	C: 99.0	D: 102.0

Cc1csc(=NC2CCCCC2)n1/N=C/c1ccc(O)c(O)c1O
  A: -11.5	B: 38.7	C: 105.0	D: 104.0

O=C(c1cc2ccccc2c(=O)o1)N1CCCCCC1
  A: -13.0	B: x	C: 101.0	D: 104.0

COc1cc2c(cc1OC)C(C(=O)N(C)c1ccc(Cl)cc1)C1CCCCN1C2=O (stereo not given)
  A: 0.6	B: 10.2	C: 99.0	D: 102.0

CCNCC(=O)Nc1cc(C(F)(F)F)ccc1OCCOC
  A: 4.7	B: 1.0	C: 109.0	D: 111.0

Clc1ccc2nc(-c3ccco3)cc(-c3ccccc3)c2c1
  A: -15.9	B: 28.6	C: 101.0	D: 101.0

CC(C)C(NC(=O)c1ccccc1)C(=O)OCc1cc(=O)n2ccsc2n1 (stereo not given)
  A: 9.7	B: 19.7	C: 101.0	D: 91.0

O=C(Nc1ccc(Br)cc1)C12CC3CC(CC(C3)C1)C2
  A: 10.1	B: 1.8	C: 104.0	D: 98.0

O=C1CCCN1CCc1ccccn1
  A: -21.9	B: x	C: 106.0	D: 108.0

Cc1nn2c(CN(C(=O)c3ccccc3)c3ccccc3)nnc2c2ccccc12
  A: -7.0	B: -4.9	C: 106.0	D: 103.0

Cc1ccc2c(CN3c4ccccc4CC3C)cc(=O)oc2c1 (stereo not given)
  A: 18.6	B: -10.6	C: 97.0	D: 91.0

O=C(NCC(c1ccco1)N1CCCCC1)c1cccs1 (stereo not given)
  A: -4.8	B: 8.4	C: 104.0	D: 111.0

CC(O)c1ccc(F)cc1 (stereo not given)
  A: -21.5	B: -4.3	C: 102.0	D: 105.0

COC(=O)c1cc(COC(=O)c2ccc3[nH]c4c(c3c2)CCCC4)oc1C
  A: -22.0	B: -29.8	C: 103.0	D: 108.0

CCC1S/C(=N\S(=O)(=O)c2ccccc2)N(c2ccccc2)C1=O (stereo not given)
  A: -37.2	B: -9.8	C: 106.0	D: 107.0

O=C(CONC(=O)C12CC3CC(CC(C3)C1)C2)N1CCc2ccccc21
  A: 5.6	B: 14.2	C: 100.0	D: 104.0

CCOC(=O)c1ccc(-n2ccnc2)c(NC(=O)c2ccccc2)c1
  A: x	B: -1.1	C: 103.0	D: 107.0

Cc1ccc(OCC(O)CN2C(=O)NC(C)(C)C2=O)cc1 (stereo not given)
  A: -12.2	B: -7.0	C: 103.0	D: 99.0

C=CCN=C(Cc1ccccc1)C1=C(O)CC(C)(C)CC1=O
  A: x	B: -2.8	C: 99.0	D: 100.0

NNC(=O)CSc1nc(-c2ccccc2)nc2c1CCCC2
  A: 2.3	B: -9.8	C: 106.0	D: 108.0

CCN(CC)S(=O)(=O)c1ccc(/C=C/C(=O)Nc2ccccc2C)cc1
  A: x	B: -1.6	C: 98.0	D: 96.0

O=C(O)c1ccc(CSC2CCCCC2)cc1
  A: -12.7	B: 17.3	C: 98.0	D: 106.0

CCCCNC(=O)CC1N=C2c3ccccc3N=C(SCC(=O)Nc3ccccc3OC)N2C1=O (stereo not given)
  A: -1.8	B: -21.3	C: 99.0	D: 100.0

CCCn1c2ccccc2c2nnc(SCC(=O)NCc3ccc4c(c3)OCO4)nc21
  A: -4.7	B: x	C: 110.0	D: 108.0

CN1CCc2nc(SCc3cccc(C(F)(F)F)c3)c(C#N)cc2C1
  A: 7.0	B: -16.7	C: 101.0	D: 103.0

CCC(=O)c1ccccc1OCCCSc1ncccn1
  A: -14.3	B: -5.8	C: 104.0	D: 101.0

CCOP(C)(=O)C1(C#N)CC1 (stereo not given)
  A: -15.6	B: x	C: 103.0	D: 102.0

N#C/C(=C\c1ccccc1)C(=O)N1CCCC1
  A: -16.3	B: 13.2	C: 107.0	D: 113.0

CC1(C)C=C(c2ccc(C3=CC(C)(C)NC(C)(C)C3)s2)CC(C)(C)N1
  A: -13.4	B: 10.6	C: 103.0	D: 105.0

CCOC(=O)c1sc(N)c(C#N)c1COC(=O)c1c(C)nn(-c2ccccc2)c1Cl
  A: -27.7	B: 8.7	C: 44.0	D: 244.0

CC(C)COc1ccc(/C(=N\O)c2ccccc2)cc1
  A: -8.2	B: -3.6	C: 111.0	D: 106.0

O=C1CSC(c2ccco2)N1Cc1ccccc1 (stereo not given)
  A: 1.7	B: -4.4	C: 97.0	D: 107.0

CCSc1nnc(-c2cccc(S(=O)(=O)N(CC)CC)c2)n1N
  A: -22.7	B: -27.4	C: 103.0	D: 106.0

CC(NC(=O)c1ccccc1)c1cccs1 (stereo not given)
  A: -11.2	B: x	C: 100.0	D: 99.0

O=C(Nc1ccc(Cl)c(Cl)c1)C1C2CC/C=C\CCC21 (stereo not given)
  A: -7.5	B: x	C: 110.0	D: 109.0

Brc1[nH]nc2ccccc12
  A: -40.9	B: -5.8	C: 103.0	D: 106.0

CN(C(=O)CSc1nc2ccccc2o1)C1CCCCC1
  A: -4.1	B: -7.9	C: 103.0	D: 111.0

O=C(Nc1ccccc1Cl)c1ccc2c(c1)C(=O)N(Cc1ccco1)C2=O
  A: -27.2	B: -6.9	C: 101.0	D: 101.0

NS(=O)(=O)c1ccc2nc3c(nc2c1)-c1cccc2cccc-3c12
  A: -22.4	B: -37.8	C: 96.0	D: 92.0

S=C(Nc1ccccn1)c1ccccc1
  A: -14.2	B: -4.9	C: 102.0	D: 101.0

Cc1ccc(S(=O)(=O)NCCN2CCN(S(=O)(=O)c3ccc(C)c(C)c3C)CC2)c(C)c1C
  A: -5.5	B: 2.0	C: 99.0	D: 103.0

COC(=O)CNC(=O)C1CC1
  A: -47.4	B: 17.6	C: 99.0	D: 99.0

CN(C(=O)c1c[nH]c2ccc(S(=O)(=O)N3CCC4(CC3)OCCO4)cc2c1=O)C1CCCCC1
  A: -5.2	B: 109.1	C: 102.0	D: 106.0

Cc1cccc(C)c1-n1nnnc1SCc1cc(Cl)c2c(c1)OCCO2
  A: 10.0	B: -0.1	C: 100.0	D: 108.0

CNC(=O)CCCc1nc(-c2ccc(OC)cc2)no1
  A: 21.6	B: 11.4	C: 100.0	D: 103.0

CCN(CC)Cc1c(C)c(C)c(C)c(C)c1C
  A: -1.1	B: -2.3	C: 102.0	D: 104.0

CCCNC(=O)NC1CCN(c2nc3ccccc3s2)CC1
  A: -2.8	B: 18.6	C: 100.0	D: 101.0

Cc1cc(C)c2c(N=CN(C)C)c(C(=O)N3CCN(c4ncccn4)CC3)sc2n1
  A: -0.4	B: 2.3	C: 104.0	D: 104.0

CC(C)C(NC(=O)COc1ccc(Br)cc1)C(=O)O (stereo not given)
  A: -19.0	B: 4.4	C: 100.0	D: 101.0

c1ccc(Oc2ccc(-n3cnnn3)cc2)cc1
  A: -6.2	B: x	C: 109.0	D: 110.0

CC12CCCCC1C1(C=CC(=O)C=C1)C(c1ccccc1)=N2 (stereo not given)
  A: -1.2	B: x	C: 100.0	D: 109.0

COc1ccc(-c2noc(CN(C(=O)Nc3ccc(C)cc3)C(C)C)n2)cc1
  A: -8.2	B: -11.4	C: 103.0	D: 103.0

O=C(O)C(c1c(O)c2ccccc2oc1=O)c1c(O)c2ccccc2oc1=O
  A: -32.4	B: 0.8	C: 99.0	D: 103.0

O=S(=O)(c1ccc2oc(-c3cccnc3)nc2c1)c1ccc2oc(-c3cccnc3)nc2c1
  A: -14.9	B: 2.4	C: 105.0	D: 103.0

# Next entries follow.
# Codes: A = Mtb MenB inh; B = Mtb MbtI inh; C = Polio RdRp inh; D = Polio RdRp inh intensity
CCOc1ccccc1Nc1nnc(SCCC#N)s1
  A: -43.8	B: -13.4	C: 103.0	D: 103.0

Cc1cc(C)n(-c2nncn2N)n1
  A: 10.7	B: -6.1	C: 97.0	D: 98.0

CCOC(=O)C1=C(CNc2ccc(C)cc2)NC(=O)NC1c1ccccc1 (stereo not given)
  A: -27.6	B: -0.1	C: 103.0	D: 103.0

N#CC(C#N)=Cc1ccc(F)cc1F
  A: -30.7	B: -17.8	C: 100.0	D: 104.0

CC(C)C(C)(C#N)NC(=O)CSc1nnc(-c2cccs2)n1N (stereo not given)
  A: 10.0	B: 9.4	C: 99.0	D: 95.0

O=C(O)c1cc(=O)c2cccc(O)c2[nH]1
  A: 3.2	B: 27.9	C: 100.0	D: 103.0

Cc1cc2cc(CNC(=O)c3cc4ccccc4o3)ccc2[nH]1
  A: 1.1	B: -5.9	C: 102.0	D: 106.0

CCOC(=O)c1c(N)sc(C(=O)NC)c1COC(=O)/C=C/c1cccs1
  A: 5.5	B: -1.6	C: 103.0	D: 108.0

CCOc1ccccc1NC(=O)Cn1c(CC)nc2ccccc21
  A: x	B: -4.2	C: 100.0	D: 99.0

NC(=O)c1c(NC(=O)CN(C(=O)c2cccs2)C2CCCC2)sc2c1CCCC2
  A: -153.6	B: -1.9	C: 103.0	D: 104.0

OCCNc1ccc(C(F)(F)F)cn1
  A: -7.5	B: -47.9	C: 101.0	D: 103.0

# One compound at a time, as listed above.
# CC(C)C(C)(C#N)NC(=O)CSc1nnc(-c2cccs2)n1N (stereo not given) is entered as Mtb MenB inh: 10.0; Mtb MbtI inh: 9.4; Polio RdRp inh: 99.0; Polio RdRp inh intensity: 95.0
# CCOC(=O)C1=C(CNc2ccc(C)cc2)NC(=O)NC1c1ccccc1 (stereo not given) is entered as Mtb MenB inh: -27.6; Mtb MbtI inh: -0.1; Polio RdRp inh: 103.0; Polio RdRp inh intensity: 103.0
